# Sfp inh = Sfp phosphopantetheinyl transferase inhibition. Q9F4F7. Biochemical Sfp PPTase activity, qHTS. Potency, µM, inactives show max response, negative = inhibition, usual class: inhibitors. 310,000 compounds, 3.5% hits. AID 1490; active = well fitted inhibition curve with a large enough effect; inconclusive = small, poorly fitted or top-dose-only effect, or another doubt; inactive = no such curve, though single readings can be large or run the other way;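 note: the enzyme is Sfp with the accession as filed and its product quenches rhodamine fluorescence; potency is the fitted concentration of half-maximal effect; 0% = enzyme reaction without inhibitor and -100% = no enzyme wells; top concentration of the series not given in the record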
#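 Fluorescence-quenching assay: 15 nM Sfp-PPTase preincubated 15 min at room temperature with compound, then 5 uM rhodamine-CoA and 12.5 uM BHQ-2-labelled YbbR peptide added. Fluorescence (ex 525/em 598 nm) read at start and after 30 min; difference gives rate.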
# gsp antag = antagonizes gsp, the McCune-Albright syndrome mutation; gsp-mutant cells, cAMP HTRF, 30 min; control for the full effect not named in the record; Potency, µM (doses to about 76.9 µM), inactives show at the highest dose activity change, negative = inhibition, hits mostly inhibitors; 340,000 compounds, 0.4% hits; AID 624288; active = falling curve of any shape with a large fitted effect; inconclusive = falling curve, mostly with a smaller effect; inactive = flat or rising curve; cell line not stated here;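 note: intracellular cAMP measured with PDE inhibitor Ro 20-1724 present during compound exposure; potency is the fitted concentration of half-maximal effect; % is set by controls: 0 for no effect and ±100 for the full control effect; nearly all actives have a fitted effect of over 65% in size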
#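 G418-selected cells were plated in DMEM/10% FBS for 16-24 h at 37C, then treated with compounds plus the PDE inhibitor […] (300 uM solution added) for 30 min at 37C. Intracellular cAMP was measured by HTRF after 30 min lysis at room temperature.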
# CtBP-E1A blk = inhibitors of CtBP/E1A interaction | AlphaScreen GST-E1A/His-CtBP binding, 1536-well; stronger effect = lower value; control for the full effect not named in the record | activity change, % (concentration not given with the values) | 340,000 compounds, 0.49% hits | AID 651724; in the data active means activity change below about -65%; inconclusive means about -30% to -65%; inactive means above about -30%; note: % is set by controls: 0 for no effect and ±100 for the full control effect
#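 GST-E1A and His-tagged CtBP (125 nM each as 5X stock) were preincubated with pin-transferred compound for 2 h at 37 °C in the dark, then glutathione donor and nickel acceptor beads were added for 1 h before AlphaScreen reading.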
# TRPV1 potentiator = human TRPV1 potentiation. Q8NER1. TRPV1-expressing cells, Fluo-8 calcium influx, capsaicin EC20 potentiation; host cell line not named in the record; control for the full effect not named in the record. 320,000 compounds, 0.02% hits. potentiation, % at 8.33 µM; active means potentiation above 80%; inconclusive means 30% to 80%; inactive means below 30%; note: 0% is about no effect
# Target sequence (Q8NER1 whole entry, looked up): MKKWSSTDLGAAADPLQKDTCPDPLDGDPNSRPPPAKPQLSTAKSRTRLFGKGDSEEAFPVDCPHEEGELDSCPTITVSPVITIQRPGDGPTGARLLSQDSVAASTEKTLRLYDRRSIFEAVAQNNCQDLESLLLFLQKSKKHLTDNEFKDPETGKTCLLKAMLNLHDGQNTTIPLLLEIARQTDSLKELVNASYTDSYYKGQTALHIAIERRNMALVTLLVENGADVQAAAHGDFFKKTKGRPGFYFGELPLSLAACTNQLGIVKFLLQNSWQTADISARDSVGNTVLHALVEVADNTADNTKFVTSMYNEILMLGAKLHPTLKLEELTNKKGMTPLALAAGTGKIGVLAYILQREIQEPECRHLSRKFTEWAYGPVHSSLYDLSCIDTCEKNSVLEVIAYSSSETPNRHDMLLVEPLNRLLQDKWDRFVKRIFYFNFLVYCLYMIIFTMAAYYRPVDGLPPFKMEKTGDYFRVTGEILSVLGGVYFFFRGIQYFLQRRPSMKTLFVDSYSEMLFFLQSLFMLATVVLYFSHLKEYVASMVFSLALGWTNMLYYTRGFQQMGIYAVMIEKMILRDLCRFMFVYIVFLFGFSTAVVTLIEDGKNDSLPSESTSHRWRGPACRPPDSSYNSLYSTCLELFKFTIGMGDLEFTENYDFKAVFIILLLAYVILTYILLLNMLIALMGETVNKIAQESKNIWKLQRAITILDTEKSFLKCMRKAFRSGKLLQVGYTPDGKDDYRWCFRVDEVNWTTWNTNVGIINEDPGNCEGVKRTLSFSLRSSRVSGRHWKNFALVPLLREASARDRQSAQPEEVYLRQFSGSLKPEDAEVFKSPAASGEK
#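 Fluo-8 calcium influx in TRPV1-expressing cells, kinetic read (ex 480/em 520 nm). Compound added and read 3 min for agonist activity, followed by capsaicin at EC20 final and 2 min further read for enhancement.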
# ClpP mod = qHTS Assay for Activators of ClpP | purified B. subtilis ClpP, FRET peptide cleavage, 20 min | ATP-dependent Clp protease proteolytic subunit (Bacillus subtilis (strain 168)), P80244 | 340,000 compounds, 1.9% hits | Potency, µM (series often up to 57.5 µM), without a hit: top-dose activity change, negative = active; active = well fitted falling curve with a large enough effect; inconclusive = small, poorly fitted or top-dose-only effect; inactive = no such curve, though single readings can be large or run the other way; note: potency is the fitted concentration of half-maximal effect; the source files actives as falling curves though it sought activators and does not explain the sign; nearly all actives have a fitted effect of over 65% in size; many hits overshoot -100%
# Target sequence (P80244 whole entry, looked up): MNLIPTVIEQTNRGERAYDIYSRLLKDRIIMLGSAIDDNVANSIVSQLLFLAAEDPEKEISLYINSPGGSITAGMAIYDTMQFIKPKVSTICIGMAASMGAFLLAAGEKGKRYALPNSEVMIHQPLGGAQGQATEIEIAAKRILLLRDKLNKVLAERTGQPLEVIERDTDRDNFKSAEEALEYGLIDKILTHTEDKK
#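 Buffer: 100 mM Tris/HCl pH8, 100 mM KCl, 0.05% low protease BSA, 2.5% glycerol, 0.01% Tween-20. ClpP 10 microg/mL final; 20 min RT; delta FRET normalized to ADEP and DMSO controls.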
# gsp ag = activates gsp, the McCune-Albright syndrome mutation | 340,000 compounds, 0.13% hits | AID 624287 | gsp mutant cells, cAMP HTRF, 30 min; control for the full effect not named in the record | Potency, µM (series often up to 76.9 µM), for the others: at the top dose activation (cAMP increase), most hits filed as activators; active = well fitted activation curve with a large enough effect; inconclusive = small, poorly fitted or top-dose-only effect, or another doubt; inactive = no such curve, though single readings can be large or run the other way; cell line not stated here;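 note: phosphodiesterase inhibitor Ro 20-1724 added with compounds to block cAMP breakdown; potency is the fitted concentration of half-maximal effect; nearly all actives have a fitted effect of over 60% in size; about a fifth of the inactives were tested at one dose only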
#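 Cells in DMEM/10% FBS with G418 were pretreated with compounds in DMSO plus […] (300 uM stock) for 30 min at 37C. cAMP was measured by HTRF (cAMP-d2 plus anti-cAMP antibody-K) after 30 min at room temperature.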
# Menin-MLL FL inh = displaces fluorescein MLL peptide from human menin. 290,000 tested, under 10 active. Fluorescence polarization, fluorescein-MLL peptide displacement from menin. AID 1766. FP activity change, % at 61.4 µM; inconclusive = falling polarisation curve, or a change in total fluorescence; inactive = total fluorescence flat and polarisation flat or rising; no compound was filed as active; the % refers to the polarisation; negative = inhibition;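 note: % of control where 0% means no effect; inhibitors lower the polarisation; unlabelled MLL peptide was the positive control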
# An asterisk follows results filed as active; ? = inconclusive; · = no result given; & = joins results of further samples; [ ] = dose if it differs, or a comment.
SMILES,Sfp inh,gsp antag,CtBP-E1A blk,TRPV1 potentiator,ClpP mod,gsp ag,Menin-MLL FL inh
CCOC(=O)C1=C(CC)Nc2ccccc2N=C1NC(=O)c1cccc(S(=O)(=O)N2CCCC2)c1,6%,-9%,3,-22,-2.1%,-21%,-1.4
COc1ccc(CCNC(=O)N2CCOCC2)cc1,8%,12%,6,?,-1.2%,11%,1.9
CCOCCCn1c(=N)c(S(=O)(=O)c2ccccc2)cc2c(=O)n3cc(C)ccc3nc21,8%,-13%,4,3,-14%,25%,?
OCCOCCn1c(CCNc2nc(-c3ccc(F)cc3)cs2)nc2cc(C(F)(F)F)ccc21,·,-21%,·,·,-0.2%,-26%,·
COc1ccc(-c2cc(C(=O)N(C)Cc3ccc(F)cc3)c3ccccc3n2)cc1OC,·,-17%,-4,·,-21%,-24%,·
CC1=C(C(N)=O)C(c2ccc(F)cc2)n2nc(CCCO)nc2N1 (stereo not given),-4%,-10%,3,12,-3.0%,-4%,-4.5
Cc1ccc(C)c(CSC2=NCCN2C(=O)Cc2ccc([N+](=O)[O-])cc2)c1,5%,2%,-10,-6,-1.7%,-1%,-0.1
CC(=O)c1cccc(NC(=O)NCc2cccs2)c1,2%,9%,-3,-18,-4.9%,8%,3.4
O=C(CN1CCOc2ccccc21)NC1CC1,·,2%,6,·,-1.3%,-50%[inhibitor],·
CCOc1ccc(NC(=O)c2ccccc2-c2ccccc2C(=O)O)cc1,·,-4%,-27,·,-1.2%,-6%[15.4 µM],·
CCCNS(=O)(=O)c1cc(CN2C(=O)c3cccnc3C2=O)ccc1OC,10%,3%,-10,12,-0.1%,32µM*,-7.9
CCCCn1c(SCC(=O)N2CCN(c3ccccc3)CC2)nc2ccsc2c1=O,?,-31%,25,6,-1.2%,-38%[inhibitor],4.0
Cc1ccccc1-c1cc(C(=O)NCc2cccc(C(F)(F)F)c2)n(CC2CC(c3cccnc3)=NO2)n1 (stereo not given),·,-7%,3,·,0.4%,-20%,·
Cc1ccc(S(=O)(=O)c2nc(NCCN(C)C)sc2Cl)cc1,7%,19%,2,3,0.5%,2%,-1.7
CC(NC(=O)CSC1=NCCS1)c1ccccc1 (stereo not given),12%,11%,6,1,-1.9%,?,2.7
O=C(O)c1ccc2c(c1)C(=O)N(CCc1c[nH]c3ccccc13)C2=O,10%,-18%,-10,7,·,3%,-4.5
O=C(NC(=S)Nc1ccccc1N1CCN(C(=O)c2ccccc2)CC1)c1cccs1,4%,-3%,·,-7,1.7%,7%,-2.2
Cc1cc(C)c2c(N)c(C(=O)Nc3ccc([N+](=O)[O-])cc3)sc2n1,4%,5%,-11,7,-2.4%,16%,-5.5
FC(F)(F)c1nc(SCc2ccc(Cl)cc2Cl)n[nH]1,22%,-9%,8,15,?,-2%[15.4 µM],1.6
Cn1c(-c2ccc(F)cc2)cnc1SCC(=O)NNC(=O)Cc1ccccc1,13%,-4%,-22,-5,·,26%,-3.0
O=C(O)c1cc(S(=O)(=O)N2CCCCC2)ccc1F,20%,4%,5,·,-4.1%,5%,2.8
COc1ccc(/C=N/NC(=S)Nc2cc(S(=O)(=O)N3CCOCC3)ccc2N2CCOCC2)cc1O,-5%,2%,2,17,-5.4%,-27%,·
O=C(C1CCCN(S(=O)(=O)c2ccc(F)cc2)C1)N(Cc1cccs1)C1CC1 (stereo not given),9%,-8%,-2,-8,-1.2%,-33%[inhibitor],2.9
COc1ccc(C(C(=O)NC2CCCC2)N(C(=O)c2snc(C(N)=O)c2N)c2cccc(O)c2)cc1 (stereo not given),-8%,-10%,1,13,·,24%[15.4 µM],6.1

# One compound at a time (already shown):
# Profile of `O=C(C1CCCN(S(=O)(=O)c2ccc(F)cc2)C1)N(Cc1cccs1)C1CC1` (stereo not given) = Sfp inh = 9%; gsp antag = -8%; CtBP-E1A blk = -2; TRPV1 potentiator = -8; ClpP mod = -1.2%; gsp ag = -33%[inhibitor]; Menin-MLL FL inh = 2.9
# Profile of `O=C(O)c1ccc2c(c1)C(=O)N(CCc1c[nH]c3ccccc13)C2=O` = Sfp inh = 10%; gsp antag = -18%; CtBP-E1A blk = -10; TRPV1 potentiator = 7; ClpP mod = ·; gsp ag = 3%; Menin-MLL FL inh = -4.5

# Other compounds follow:
SMILES,Sfp inh,gsp antag,CtBP-E1A blk,TRPV1 potentiator,ClpP mod,gsp ag,Menin-MLL FL inh
Cc1ccccc1NC(=O)CCc1c(C)nn(-c2ccc(N3CCOCC3)nn2)c1C,9%,8%,14,16,-0.2%,6%,4.3
Cc1cccc(NC(=O)C2CC(=O)n3cnnc3S2)c1 (stereo not given),28µM*,8%,5,-2,-1.7%,24%,0.4
Cc1cccc(N(CC(=O)NCc2ccco2)C(=O)CNS(=O)(=O)c2ccc(F)cc2)c1,18%,-10%,2,8,·,-10%,0.0
C=CCn1c(SCCOc2ccc(OC)cc2)nnc1C(C)NC(=O)c1ccc(OC)cc1 (stereo not given),0%,-5%,-6,-8,1.7%,-40%[inhibitor],-0.4
Cc1ccc(NC2=C(NCCO)C(=O)c3ccccc3C2=O)cc1,-7%,7%,?,-16,2.3%,2%,-7.8
CN(C)C(CNC(=O)c1ccc(NC(=O)c2cccs2)cc1)c1ccccc1 (stereo not given),0%,6%,-18,4,·,-2%,-3.4
Nc1nc(SCC(=O)Nc2ccc([N+](=O)[O-])cc2Br)n[nH]1,18%,3%,-8,8,-1.6%,-1%,3.4
OCCNCc1ccc(OC2CCCC2)cc1,12%,4%,3,-8,-1.4%,-26%,2.7
O=S(=O)(c1cccs1)N1CCN(Cc2cccc(F)c2)CC1,9%,7%,6,-10,-0.7%,-20%,-2.7
c1ccc(Sc2ccccc2CN2CCCC2)cc1,·,9%,1,·,·,-5%[15.4 µM],·
Cc1nc([N+](=O)[O-])nn1C12CC3CC(CC(Br)(C3)C1)C2,16µM*,-4%,0,15,-1.8%,-35%[inhibitor],-0.3
COc1ccc(-c2nn(C)c(=O)c3ccccc23)cc1NC(=O)COc1ccc(C)cc1,6%,-17%,-10,-9,-9.0%,-4%,3.2
Cc1cc(C)cc(NC(=O)C2(c3cccs3)CCOCC2)c1,-3%,2%,0,?,-0.6%&-1.0%,16%[15.4 µM],3.2
NC(=O)c1ccccc1NC(=O)Cc1cccs1,15%,10%,7,11,·,-12%,1.5
CCOC(=O)Cn1c(=O)oc2cc(S(=O)(=O)NCCc3ccc(OCC)c(OCC)c3)ccc21,2%,6%,2,-4,0.3%,-30%,0.7
Cc1cc(C)c(S(=O)(=O)c2ccccc2)c(OC(=O)c2c(Cl)cccc2Cl)n1,-7%,1%,-3,0,-240%,8%[15.4 µM],0.0
C/C(N)=C(/C#N)C(=O)CSc1nnc(COc2cc(C)ccc2C)o1,4%,8%,4,-1,0.4%,-1%,2.6
CC(=O)Nc1ccccc1C(=O)N1CC2(C)CC1CC(C)(C)C2 (stereo not given),17%,-13%,5,-27,0.9%,-32%[inhibitor],-1.4
O=C(O)c1ccccc1C(=O)c1cccc2c(Br)cccc12,·,22%,-1,·,·,?,·
COc1ccc(-c2cc3c(=O)n(CC(=O)NCc4cccnc4)ncn3n2)cc1,-13%,-18%,5,-13,4.7%,20%,-0.4
Cc1ccc(C)n1Cc1ccccc1Cl,5%,7%,0,1,·,-6%,-0.1
COc1ccc2oc(C(=O)OCC(=O)Nc3ccc(NC(C)=O)cc3)c(C)c2c1,·,-1%,0,4,25µM*,-84%[inhibitor],·
COc1ccc(NC(=O)Cc2c(Cl)cccc2Cl)cn1,15%,·,-22,12,·,-4%[15.4 µM],-0.8
COc1ccc(C(=O)Nc2ccc(S(=O)(=O)Nc3onc(C)c3C)cc2)cc1,7%,7%,-10,19,5.8%,1%,2.7
O=S(=O)(c1cccc2ccccc12)N1CCC2CC1c1cc(-c3ccc(F)cc3)ccc12 (stereo not given),·,7%,-22,·,-2.2%,·,·
CCCCn1nc(NC(=O)COC)c2cc3ccc(C)cc3nc21,-15%,-22%,·,-22,-21%,-5%,2.1
CC1CN(C(=O)COC(=O)c2ccc(Cl)c(N)c2)CC(C)O1 (stereo not given),19%,11%,0,-2,·,0%[15.4 µM],-1.6
CC(C(=O)N1c2ccc(F)cc2CCC1C)N1C(=O)c2ccccc2C1=O (stereo not given),-14%,2%,2,-2,-0.3%,-2%,-2.0
NC(=O)C1CCN(C(=O)CSc2ccsc2[N+](=O)[O-])CC1,9%,26%,·,10,-0.2%,-38%[inhibitor],-0.8
COc1ccc(N2CCN(C(=O)CN=C3NS(=O)(=O)C(c4ccc(C)cc4)=C3C)CC2)cc1,-15%,-3%,-19,3,-2.0%,-53%[inhibitor],3.1
Cc1ccc(CCN2CC(C(=O)NCc3cccnc3)CC2=O)cc1 (stereo not given),·,-2%,-1,·,-7.0%,-14%,·
CCOC(=O)c1ccc(NC(=S)N2CCCC2)cc1,1%,5%,-15,-20,-5.0%,?,1.4
CCOc1ccc(CCNC(=O)CCCn2c(=O)c3cccn3c3cccnc32)cc1OCC,1%,?,·,30,-4.5%&-3.6%,0%,2.4
O=C(CN1C(=O)c2ccccc2C1=O)Nc1nccs1,2%,3%,·,6,-0.3%,27%,-1.8
O=C1C2CCCN2C(=S)N1C1CCCCC1 (stereo not given),8%,-1%,·,-2,-0.9%,1%,-4.0
O=C1OC(c2ccccc2)=C/C1=C/N1CCOCC1,20µM*,-9%,-3,4,-0.7%,-33%[inhibitor],4.2
Cc1cccnc1NC(=O)C(c1ccccc1)c1ccccc1,-7%,7%,6,-11,·,-10%,-0.1
CC(C)Nc1c([N+](=O)[O-])c(=O)oc2ccccc12,7%,·,-10,7,·,0%[15.4 µM],-0.1
CC(c1ccccc1)C(Cc1nc2ccccc2[nH]1)c1nc2ccccc2[nH]1 (stereo not given),-2%,·,·,-6,·,·,-1.6
C/C(=N\NC(=O)C1CC1c1ccccc1)c1cccc([N+](=O)[O-])c1 (stereo not given),9%,-1%,-4,13,0.1%,1%,-6.7
C=CCn1c(=S)sc2c(=O)[nH]c(C)nc21,4%,-6%,2,22,0.1%,22%,-3.1
CC(C)(C)NC(=O)Cn1c(=O)n(CC(=O)NC(C)(C)C)c2ccccc21,2%,-4%,7,10,·,4%,6.1
